Screening results: PubChem BioAssay, ICCB-Longwood Screening Facility, Harvard Medical School
AID504770: E. coli YBA685 growth inhibition, screen for V. cholerae RctB inhibitors | 0.27% of 130,000 active | E. coli YBA685 rctB-dependent plasmid, OD600 growth, 3 h; hits give low values | z-score (no concentration beside the values) | AID 504770;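 active means z-score under -2 on both plates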;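 further: wells of about 30 µL received 100 nL stock; score is relative to mean and SD of the test wells; the first replicate is given; strong numbers were not always called active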
CapD inh: CapD enzyme inhibition. purified CapD enzyme, fluorescence intensity read-out; hits give low values; some hits fall short of the stated cut. z-score (test concentration not listed). 0.23% of 140,000 active. AID 492967;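 active means z-score under -4 in either of two replicates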;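 further: stock transfer was 100 nL into about 40 µL; score is relative to mean and spread of the plate; one replicate is shown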
The depositor's hits bear a star; . = not tested or not shown. This is a subset. The share of hits here may be higher or lower than overall.

Preview, six compounds:
smiles	AID504770	CapD inh
COc1ccc(-c2c(C)oc3cc(OCC(O)CN4CCC(C(N)=O)CC4)ccc3c2=O)cc1 (centres undefined)	-2.4	.
COC(=O)C(NS(=O)(=O)c1ccc(F)cc1)c1ccccc1 (centres undefined)	-0.85	0.1
O=C(c1ccco1)N1CCN(c2ncnc3nc[nH]c23)CC1	0.7	0.32
Cc1ccccc1NC(=O)CCS(=O)(=O)c1cccc2nonc12	1.2	-0.92
Cc1ccc(C)c(C(=O)O)c1	1.5	.
COC(=O)C(C)(N)Cc1c[nH]c2ccccc12 (centres undefined)	.	0.04

The whole of this part, from the start:
smiles	AID504770	CapD inh
COc1ccc(-c2c(C)oc3cc(OCC(O)CN4CCC(C(N)=O)CC4)ccc3c2=O)cc1 (centres undefined)	-2.4	.
COC(=O)C(NS(=O)(=O)c1ccc(F)cc1)c1ccccc1 (centres undefined)	-0.85	0.1
O=C(c1ccco1)N1CCN(c2ncnc3nc[nH]c23)CC1	0.7	0.32
Cc1ccccc1NC(=O)CCS(=O)(=O)c1cccc2nonc12	1.2	-0.92
Cc1ccc(C)c(C(=O)O)c1	1.5	.
COC(=O)C(C)(N)Cc1c[nH]c2ccccc12 (centres undefined)	.	0.04
C=Cn1c(C(=O)O)cc(CC)c1-c1ccccc1	0.4	.
COc1cccc(N2C(=O)NC(=O)/C(=C\c3ccc(N(C)C)c([N+](=O)[O-])c3)C2=O)c1	.	-1.6
O=S(=O)(c1cccc(-c2cn3cccnc3n2)c1)N1CCCC1	-1	100
CCCC/C(C)=N/n1c(-c2ccco2)csc1=NC	0.4	.
CCOC(=O)C1C2C=CC3(CN(CC(C)C)C(=O)C13)O2 (centres undefined)	-0.65	-0.23
CCOc1ccccc1-n1nnc(C(N)=O)c1C	-0.65	0.85
CSc1nc2ccccc2n1CC(=O)N1CCCCC1	1.9	0.19
Cc1ccc(NC(=O)COC(=O)c2cnc3sccn3c2=O)cc1C	-0.05	.
O=C(NCc1ccco1)/C(=C/c1ccco1)NC(=O)c1ccc(Br)cc1	.	-0.46
N#Cc1c(-c2cccs2)cc(-c2ccccc2)nc1SCC(N)=O	.	7.5
CC1(C)Cc2c(sc(NC(=O)CN3C(=O)C4CC=C(Cl)CC4C3=O)c2C#N)CO1 (centres undefined)	.	-0.085
Cc1ccc(C(O)(C(=O)NN(C(=O)c2ccc(Br)o2)c2ccccc2)c2ccc(C)cc2)cc1	.	-0.52
CCC(=O)Nc1sccc1C(N)=O	-0.7	.
Fc1cccc(F)c1C=Nc1ccc2c(c1)OCCO2	-2.5	.
Cc1cc2c(cc1C)CSC(c1c(O)ccc3cc([N+](=O)[O-])ccc13)SC2	.	0.27
CCOC(=O)c1sc(=S)n(-c2ccc(Br)cc2)c1N	.	-0.59
COCCNC(=O)CSc1nc2sc3c(c2c(=O)n1-c1ccccc1)CCCC3	.	-0.26
COc1cc(C2NC(=O)NC(C)=C2C(=O)OC2CCCCCC2)cc(OC)c1OC (centres undefined)	.	0.15
O=C(CCc1c[nH]c2ccccc12)NNC(=O)c1cccc(F)c1	.	-0.52
CC1=NN(C(C#N)c2ccccc2)C(C)(C)C1 (centres undefined)	0.2	.
CCn1cc(/C=C(\NC(=O)c2ccccc2F)C(=O)N2CCN(C)CC2)c2ccccc21	-0.9	-2
CC(C)(C)CC(=O)Nc1ccc2c(c1)OCCO2	-0.45	-0.01
Clc1ccccc1/C=N/c1nc2ccccc2n1CCN1CCCCC1	-0.9	0.12
O=C(Nc1cc(C(F)(F)F)ccc1Cl)c1cc(S(=O)(=O)N2CCC3(CC2)OCCO3)ccc1F	.	-0.76
COc1ccc(N2CCC(CNS(=O)(=O)c3cccc(Cl)c3)C2)cc1 (centres undefined)	-0.35	0.44
c1nc(NCc2ccc3c(c2)OCO3)c2ccsc2n1	-1.9	.
O=C(C1CCN(C2CC(=O)N(c3ccc4c(c3)OCO4)C2=O)CC1)N1CCCCCC1 (centres undefined)	0.15	0.68
O=C1CC2CCC(CN1)N2CC(=O)Nc1ccccc1C(F)(F)F (centres undefined)	-0.1	.
NC(=O)c1cccc2cccc(Sc3ccccc3)c12	-0.35	0.19
Cc1ccc(-c2nn(CCC(=O)Nc3cccc(C(F)(F)F)c3)c(=O)c3ccccc23)cc1	0.15	-0.27
O=C(CSc1n[nH]c(=O)n1Cc1ccco1)Nc1ccccc1Cl	0.15	-0.065
CC(C)C/C=C1\CC/C(=C\c2ccc(N(C)C)cc2)C1=O	-0.2	-0.86
O=C(Nc1nc2c(ccc3ccccc32)o1)c1cccs1	.	36
Cn1c(=O)c2c(nc(N3CCCCCC3)n2CC(O)COc2ccc(Cl)cc2)n(C)c1=O (centres undefined)	.	-0.2
COC(=O)c1ccccc1NC(=O)c1ccc2c(Cl)c3c(nc2c1)CCC3	2	0.33
CN(C(=O)COC(=O)Cc1ccc(Br)cc1)c1ccccc1	-0.95	-0.56
CC(c1cccs1)n1nccc1NC(=O)c1cnc2ccccc2n1 (centres undefined)	0.25	.
Cc1cc(C)c(CN(C)C)c(O)c1	0.85	-0.015
CC(C)Oc1ccc(C(=O)Nc2ccnn2C2CCCCC2)cc1	0.95	.
O=c1c2ccccc2c(/C=N/c2ccnn2Cc2ccco2)c(O)n1-c1cccc(C(F)(F)F)c1	-0.95	.
NS(=O)(=O)c1ccc(CCNC(=O)C2CCN(c3nc4ccccc4n3Cc3ccc(F)cc3)CC2)cc1	-0.2	-0.29
CCSc1nc2ccccc2n1CC(=O)N1CCOCC1	-1.1	-0.48
Cc1sc(=[N+]2CCCCC2)sc1SCC(=O)O	-0.4	-0.35
COc1ccc2c(c1)CCc1c(C(=O)N3CCCCC3)noc1-2	-0.55	0.23
CN1CCC(N(C(=O)C(c2ccccc2)c2ccccc2)C2CC2)CC1	.	-0.47
COc1cc2c(cc1OC)C1=NC(=O)CN1C(SCc1ccccc1F)=N2	.	20
CCSc1nnc(CCNC(=O)NC2CCCCC2)n1C	-1	.
Cc1ccc(C2=NS(=O)(=O)N(C)C(C(=O)N3CCCCC3C)=C2)cc1 (centres undefined)	-0.25	1.8
Cc1nc2cc(COC(=O)c3ccccc3)ccc2s1	1.1	-0.17
CCc1ccc(/C=C/C2=CC(C)(C)NC(=S)N2)cc1	3.2	49
O=C(CN1C(=O)c2cccnc2Sc2ccccc21)N1CCN(c2ccccc2F)CC1	0.05	0.29
O=C(Cc1nn[nH]n1)Nc1ccc(F)cc1F	.	-0.29
CCCCc1ccc(C(=O)Nc2cc3cccc(OC)c3oc2=O)cc1	-0.6	1
CC(C)N(C(=O)c1noc2c1CCc1sccc1-2)C1CCCCC1	-0.35	-1.7

Three successive records out of the list so far, quoted:
smiles	AID504770	CapD inh
COc1ccc(N2CCC(CNS(=O)(=O)c3cccc(Cl)c3)C2)cc1 (centres undefined)	-0.35	0.44
c1nc(NCc2ccc3c(c2)OCO3)c2ccsc2n1	-1.9	.
O=C(C1CCN(C2CC(=O)N(c3ccc4c(c3)OCO4)C2=O)CC1)N1CCCCCC1 (centres undefined)	0.15	0.68

Going on with the list:
smiles	AID504770	CapD inh
CCc1ccc(N2NC(=O)/C(=C/c3ccc4c(c3)n(C)c(=O)n4C)C2=O)cc1	-1.1	6.5
O=S(=O)(c1ccccc1)c1ccccc1C(F)(F)F	.	-0.025
O=C(Nc1ccc(F)c(F)c1)c1sc2ccccc2c1Cl	0.2	0.55
O=C(Nc1ccc2oc(-c3cccc4ccccc34)nc2c1)c1ccc([N+](=O)[O-])cc1[N+](=O)[O-]	.	-1
CCOC(=O)c1c(N)n(CC(C)NC(=O)COc2ccccc2)c2nc3ccccc3nc12 (centres undefined)	-0.8	.
CCN1/C(=c2/sc(=C3C(=O)c4ccccc4C3=O)n(CC)c2=O)C=Cc2ccccc21	.	-0.3
CC(C)(C)OC(=O)C(Cc1ccc(OC(C)(C)C)cc1)NC(=O)OCCc1ccc(Cl)cc1 (centres undefined)	.	0.36
C=CCOc1ccc(-c2ccc(C#N)cc2)cc1	-0.15	.
CN(C)S(=O)(=O)N(Cc1ccc(C(C)(C)C)cc1)c1ccccc1	0.35	-0.86
O=C(C(Cc1ccccc1)NS(=O)(=O)c1cccc2nsnc12)N1CCC2(CC1)OCCO2 (centres undefined)	2.3	-0.08
Cc1cc(F)ccc1S(=O)(=O)Nc1ccccc1C(=O)Nc1cccnc1	-0.2	.
Cc1oc2c(C)c(OC(=O)c3ccco3)ccc2c(=O)c1-c1nc2ccccc2s1	-0.15	-0.15
CN(C(=O)c1ccc(-n2cnnn2)cc1)C1CC(C)(C)N(C)C(C)(C)C1	-0.25	0.4
Cc1ccc(S(=O)(=O)NCC(Sc2nnc(-c3cccs3)n2C2CC2)c2ccccc2)cc1 (centres undefined)	1.1	.
CC1=C(C(=O)OC2CCCCC2)C(c2cccc(Cl)c2Cl)CC(=O)N1 (centres undefined)	.	-0.81
Cc1noc(C)c1CSc1nc2ccccc2c(=O)n1CCc1ccc(S(N)(=O)=O)cc1	2.6	.
Cc1cc(C)nc(Sc2ccc(OCC3CCCCO3)cc2)n1 (centres undefined)	.	-0.27
CCNc1c(NS(=O)(=O)c2cccc(C#N)c2)c(=O)oc2ccccc12	-0.35	-0.64
CCOC(=O)C1=C(C)NC2=C(C(=O)C(C(=O)OCC)C(c3ccccc3OC)C2)C1c1ccccc1Cl (centres undefined)	.	23
COc1ccc2[nH]cc(CCN3C(=O)C4CCCCC4C3=O)c2c1 (centres undefined)	.	0.15
CSc1nc(Nc2ccc(F)cc2)c(C#N)c(-c2ccccc2)n1	-0.85	0.005
CCSC1=C(C#N)C(=O)NC(c2ccco2)S1 (centres undefined)	-0.45	79
Cc1ccc(-c2ccc(=O)n(CC(=O)NC3CCCC3)n2)cc1	0.75	-0.13
CC1(C)CC(=O)c2sc(NC(=O)CCOc3ccccc3)nc2C1	1.9	0.42
O=C(CCCSc1ccccc1)Nc1ccc2c(c1)OCO2	0.3	.
CCCCCCCCCCOC(=O)c1cc([N+](=O)[O-])cc2c1-c1ccc([N+](=O)[O-])cc1/C2=N\O	.	0
Cn1c(=O)c(C(=O)NC2CCCCCC2)c(O)c2ccccc21	-0.25	.
O=C1C2C3C=CC(C3)C2C(=O)N1c1ccc(-c2nc(-c3ccccc3)c3ccccc3n2)cc1 (centres undefined)	.	-0.12
CCC(C)NS(=O)(=O)c1ccc(-n2cccn2)cc1 (centres undefined)	0.6	-0.4
CCCc1nc2ccccc2n1C(=S)SC	-0.55	-1.2
O=C(CCCOc1ccccc1)Nc1ncn[nH]1	-0.65	.
COc1cccc(-c2[nH]nc(SC)c2C#N)c1	-0.85	0.13
COc1ccc(C=C2C(=O)NC(=S)NC2=O)cc1Br	.	-0.61
Cc1nc2ccccc2nc1SCC(=O)N1CCCC1	-0.25	0.67
CC(=O)Nc1ccc(-n2c(C)nc(=O)c(-c3ccccc3)c2C)cc1	-1.4	6.5
CCNC(=S)N1CCC(NC(=O)C23CC4CC(CC(C4)C2)C3)CC1	-0.55	.
COc1ccc(CCNC(=O)C2CC(=O)N(C3CCCC3)C2)cc1OC (centres undefined)	-0.5	-0.12
CCOc1cc(C)c(Cl)cc1S(=O)(=O)N1CCN(CC)CC1	1.1	-0.74
N#Cc1c(N)nc2c(c1-c1cccnc1)CCCCCC2	0.3	4.4
CCCC(NC(=O)C(C)N)C(=O)O (centres undefined)	.	0.065
O=C(CCC1CCCCC1)NC1C=CS(=O)(=O)C1 (centres undefined)	-0.4	.
CN1CCC2=C[C@@H](O)C3OC(=O)c4cc5c(cc4C3[C@H]21)OCO5 (some centres undefined)	.	0.08
N#CC1=C(N)Oc2c(c(=O)oc3ccccc23)C1c1ccccc1OC(=O)N1CCOCC1 (centres undefined)	.	0.12
O=C(c1ccc2c(Cl)c3c(nc2c1)CCCC3)N1CCCCCC1	-0.45	2.7
COc1cc(C2C(N3C(=O)c4ccc([N+](=O)[O-])cc4C3=O)C(=O)N2c2cc(Cl)cc(Cl)c2)cc(OC)c1OC (centres undefined)	.	-0.43
Cc1nc(C2CC(=O)OC23CCCCC3)cs1 (centres undefined)	1.2	-0.045
O=c1oc(-c2cccs2)nc2c(Br)cc(Br)c(F)c12	1.1	3.1
O=C(CCN1C(=O)c2cccc([N+](=O)[O-])c2C1=O)NCC1CCCO1 (centres undefined)	.	-0.1
N#Cc1cccc(NC(=O)C2CCCC2)c1	0.25	.
COc1ccc(CC(=O)c2ccccc2C(=O)O)cc1	0.25	0.01
O=c1cc(Cn2nnc(-c3ccccc3)n2)[nH]c(=O)[nH]1	-0.6	.
COCC(C)n1c(COc2ccccc2F)nnc1SC/C(O)=C(\C(=O)OC)c1nc2ccccc2[nH]1 (centres undefined)	0.05	.
COC(=O)c1cccc(NC(=O)c2ccc(C(C)(C)C)cc2)c1	0.15	0.45
O=C(OCC(=O)N1CCCc2ccccc21)c1ccccc1Cl	0.25	.
Cc1ccc(Nc2nc3nonc3nc2NC2C3CC4CC(C3)CC2C4)cc1C (centres undefined)	0.1	-0.47
Cc1cccc(C(=O)Nc2ccc(N3CCN(c4ccccc4)CC3)c(F)c2)c1	.	-0.09
CC(C)(C)c1ccc(Oc2ccc(S(C)(=O)=O)cc2NC(=O)C2CC2)cc1	.	0.33
Cn1ncc(Cl)c1C(=O)O	1.6	.
